Source: PubChem (Vanderbilt University)
GIRK2 act: activators of human GIRK2 potassium channels. 0.05% of 63,000 active. HEK293-GIRK2 thallium flux, Thallos fluorescence. calls only for hits at 25 µM;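 active = among the strongest 0.2% of first-round signals and kept after retests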;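 also: first round at about 10 µM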
Target sequence (P48051 whole entry, looked up): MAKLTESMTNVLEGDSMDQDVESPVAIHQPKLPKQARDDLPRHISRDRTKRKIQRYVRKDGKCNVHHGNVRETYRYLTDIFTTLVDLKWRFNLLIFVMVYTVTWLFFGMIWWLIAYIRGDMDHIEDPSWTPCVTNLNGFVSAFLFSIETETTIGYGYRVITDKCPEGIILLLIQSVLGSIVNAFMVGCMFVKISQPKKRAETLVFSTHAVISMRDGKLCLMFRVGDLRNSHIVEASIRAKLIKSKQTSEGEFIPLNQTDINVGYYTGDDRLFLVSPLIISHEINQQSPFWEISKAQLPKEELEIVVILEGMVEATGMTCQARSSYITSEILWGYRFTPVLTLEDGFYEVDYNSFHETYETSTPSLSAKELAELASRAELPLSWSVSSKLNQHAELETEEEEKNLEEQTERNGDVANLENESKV
Calls only; i = inactive. A portion of the library; rates above refer to the full screens.

SMILES	GIRK2 act
COC(=O)c1cc2c(=O)n3cccc(C)c3nc2n(Cc2ccc(OC)cc2)c1=N	i
CCCCCNC(=O)CCc1csc(NC(=O)Nc2ccccc2)n1	i
COc1ccc(-c2noc(C3CCN(CC(=O)Nc4ccc5c(c4)CCC5)CC3)n2)cc1	i
COc1ccc(CNC(=O)NCCC(O)c2cccs2)cc1OC (stereo not given)	i
COc1ccc(Cl)cc1NC(=O)N1CCOCC1	i
Cc1nc(NC(=O)CN(C)C(=O)c2ccc(=O)[nH]c2)sc1C(=O)N(C)C	i
Cc1c(C(=O)NCC2CCCO2)nnn1-c1nccs1 (stereo not given)	i
COc1cc(Cl)c(S(=O)(=O)NCc2ccccn2)cc1Cl	i
COc1ccc(S(=O)(=O)NCc2cc(C)oc2C)cc1F	i
FC(F)(F)Oc1ccccc1CN1CC(c2nc(-c3cccs3)no2)C1	i
CCOc1cccc2sc(N3CCN(C(=O)c4cc(-c5ccco5)on4)CC3)nc12	i
c1ccc(-c2cc3ccccc3[nH]2)cc1	i
CS(=O)(=O)NCC1CCC(C(=O)Nc2ccc(F)c(Cl)c2)CC1 (stereo not given)	i
O=S(=O)(c1cc(Cl)cc(Cl)c1O)N1CCCCC1	i
O=C(CSc1nc2c(c(=O)[nH]1)CCCC2)Nc1ccc(Cl)cc1	i
Cc1ccc2ncc(C(=O)N3CCCC3)c(S(=O)(=O)c3ccc(Br)cc3)c2c1	i
Cc1cc(C(F)(F)F)c(C#N)c(SCCc2ccccc2)n1	i
Cn1c(=O)c2c(nc(N3CCOCC3)n2Cc2ccc(F)cc2)n(C)c1=O	i
O=C(c1cc(-c2cccs2)[nH]n1)N1CCN(c2ccccn2)CC1	i
COc1ccc(S(=O)(=O)N2CCCCC2CC(=O)NCc2ccccc2OC)cc1 (stereo not given)	i
Cc1ccc(NCCNS(=O)(=O)c2ccc(Cl)c(Cl)c2)nn1	i
Cc1ccc(Cn2c(NCc3cccnc3)nc3c2c(=O)n(C)c(=O)n3C)cc1	i
NC(=O)CSc1nccc(-c2ccc3c(c2)OCO3)n1	i
COc1ccc(-c2csc3c(=O)n(Cc4cc(=O)n5ccccc5n4)cnc23)cc1OC	i
CC(=O)c1cccc(NC(=O)Cn2ccn3nc(-c4ccccc4)cc3c2=O)c1	i
CCNS(=O)(=O)c1cc(N(C)S(=O)(=O)c2ccc(Cl)cc2)c(C)cc1C	i
COC(=O)Cn1c(SCCOc2cccc(C)c2)nc2ccccc21	i
CS(=O)(=O)N1CCC(C(=O)N2CCC(c3ccccc3)C2)CC1 (stereo not given)	i
Cc1cccc(Cn2c(=O)c3c(nc4n(CCCO)c(C)c(C)n34)n(C)c2=O)c1	i
C=CCOc1ccc(C(O)=C2C(=O)C(=O)N(c3cc(C)on3)C2c2ccccc2OC)cc1 (stereo not given)	i
CCc1ccccc1NC(=O)c1cc2cccnc2n(CC)c1=O	i
O=C(Nc1nc(CCC(=O)N2CCCC2)cs1)c1ccc(=O)[nH]c1	i
COc1cc(NC(=O)Cn2c3ccc(F)cc3c(=O)n2C(C)(C)C)cc(OC)c1OC	i
Cc1noc(NS(=O)(=O)c2ccc(NC(=O)c3coc(NC(=O)C4CC4)n3)cc2)c1C	i
COc1cc(NC(=O)c2nn(-c3cccc(F)c3)c(OC)cc2=O)cc(OC)c1	i
O=C(NCC1CCCO1)c1csc(-c2cnccn2)n1 (stereo not given)	i
CC(Oc1ccc(Cl)cc1Cl)C(=O)NCCOc1cc(N2CCOCC2)ncn1 (stereo not given)	i
CCOC(=O)c1c(NC(=O)CCCS(=O)(=O)Cc2ccccc2)sc2c1CCC(C)C2 (stereo not given)	i
CCc1cnc2c(c1SCC(=O)N1CC(C)OC(C)C1)c(=O)n(C)c(=O)n2C (stereo not given)	i
CC(C)c1ccc(NC(=O)C2=Cc3ccccc3OC2)cc1	i

Among those listed so far, these contain fluorine.
SMILES	GIRK2 act
COc1ccc(S(=O)(=O)NCc2cc(C)oc2C)cc1F	i
FC(F)(F)Oc1ccccc1CN1CC(c2nc(-c3cccs3)no2)C1	i
CS(=O)(=O)NCC1CCC(C(=O)Nc2ccc(F)c(Cl)c2)CC1 (stereo not given)	i
Cc1cc(C(F)(F)F)c(C#N)c(SCCc2ccccc2)n1	i
Cn1c(=O)c2c(nc(N3CCOCC3)n2Cc2ccc(F)cc2)n(C)c1=O	i
COc1cc(NC(=O)Cn2c3ccc(F)cc3c(=O)n2C(C)(C)C)cc(OC)c1OC	i
COc1cc(NC(=O)c2nn(-c3cccc(F)c3)c(OC)cc2=O)cc(OC)c1	i

(further entries)
SMILES	GIRK2 act
O=C(/C=C/c1ccccc1Cl)N1CC(c2nc(-c3ccncc3)no2)C1	i
O=C(/C=C/c1ccccc1Cl)Nc1cc(N2CCCC2)ncn1	i
Cc1ccccc1Cn1c(=O)c2c(nc3n(CCCn4ccnc4)c(C)c(C)n23)n(C)c1=O	i
O=C(COc1ccc(-n2cccn2)nn1)Nc1nccs1	i
CCOC(=O)C1CCc2sc(NC(=O)CSc3nc4ccccc4o3)nc21 (stereo not given)	i
COc1ccc(NC(=O)CCc2csc(NC(=O)NC3CCCCC3)n2)cc1OC	i
C=C(C)C(=O)CCC(C)C1CCC2(C)C3C(OC(C)=O)C(OC(C)=O)C4C(C)(C(=O)O)C(O)CCC45CC35CCC12C (stereo not given)	i
O=C(c1ccc2nsnc2c1)N1CCN(CC(O)c2ccco2)CC1 (stereo not given)	i
O=C(NCCCn1ccnc1-c1ccccc1)C(=O)Nc1ccccc1	i
O=S(=O)(c1ccc(Br)s1)N1CC(Oc2nc3ccccc3s2)C1	i
Cc1ccc(NC(=O)C(=O)NCC2COC3(CCCCC3)O2)cc1N1CCCC1=O (stereo not given)	i
O=C(NCCC(O)C1CC1)C(=O)Nc1cccnc1 (stereo not given)	i
CNC(=O)Cn1c(=O)n(-c2ccccc2)c(=O)c2oc3ccccc3c21	i
COc1ccccc1NC(=O)c1nnn(-c2ccc3noc(-c4ccc(Cl)cc4)c3c2)c1C	i
CC(C)c1nc(-c2ccc(N3CCN(C(=O)c4ccc5nsnc5c4)CC3)nc2)no1	i
COc1ccccc1Oc1c(C)oc2cc(OCC(=O)c3ccccc3)ccc2c1=O	i
O=C(Cn1nc2c(N3CCCC3)nccn2c1=O)Nc1ccccc1	i
COC(=O)c1ccccc1NC(=O)Cn1ccn(Cc2ccc(Cl)cc2)c(=O)c1=O	i
O=C(O)Cc1ccc(NC(=O)C2Cc3ccccc3C(=O)O2)cc1 (stereo not given)	i
COc1ccc(NC(=O)Cn2nc(C3CCN(S(C)(=O)=O)CC3)n(C)c2=O)cc1	i
COCCNS(=O)(=O)c1ccc(C)c(N(C)S(=O)(=O)c2ccc(C)cc2)c1C	i
Cc1nc(C)c(-c2ccc(=O)n(CCNC(=O)c3ccc4c(c3)OCO4)n2)s1	i
COc1cc(C)c(C(C)C)cc1S(=O)(=O)N1CCCCCC1	i
COc1cccc(-n2nnc(C(=O)NCc3cccc(Cl)c3)c2-c2cccnc2)c1	i
CCOc1ccc(-c2cc3c(=O)n(CC(=O)Nc4ccc5c(c4)OCO5)ncn3n2)cc1	i
Cn1cc(C(=O)NCC2CCC(c3nc4ccccc4[nH]3)CC2)nn1 (stereo not given)	i
COCCn1c(C(C)(C)O)nc2ccccc21	i
C#CCOCC1CCCN(S(=O)(=O)c2ccc(Cl)cc2)C1 (stereo not given)	i
CC1(C)C2CCC1(CS(=O)(=O)n1cnc3ccccc31)C(=O)C2 (stereo not given)	i
COc1ccc(-n2c(C)nc3ccc(NC(=O)COc4ccc(F)cc4)cc3c2=O)cc1	i
COc1cc(/C=C/C(=O)N2CCC(CSCc3ccco3)CC2)cc(OC)c1OC	i
Cc1ccc2c(c1)NC(=O)c1cc(NC(=O)c3ccno3)ccc1O2	i
CC(C)CNC(=O)c1ccc2c(=O)n(Cc3ccccc3)c3nn(Cc4ccccc4)c(=O)n3c2c1	i
CCOC(=O)c1c(-c2ccccc2)oc2ccc(OCC(=O)N/N=C\c3ccccn3)cc12	i
COc1nn(C)cc1C(=O)NCCC(O)c1ccc2c(c1)OCO2 (stereo not given)	i
Cc1ccc(Cc2nnc(NC(=O)Nc3c(F)cccc3F)o2)c(C)c1	i
Cc1cccc(Nc2nc3c(c(=O)n(C)c(=O)n3C)n2CC(=O)OCc2ccccc2)c1	i
COc1ccccc1OCC(=O)Nc1cccc(C(=O)O)c1	i
C#CCCNC(=O)c1csc(C)n1	i
Cc1noc(CNS(=O)(=O)c2ccc(C(C)(C)C)cc2)n1	i

Exported field by field: 2 of the compounds above
O=C(/C=C/c1ccccc1Cl)Nc1cc(N2CCCC2)ncn1
  GIRK2 act: i
Cc1ccccc1Cn1c(=O)c2c(nc3n(CCCn4ccnc4)c(C)c(C)n23)n(C)c1=O
  GIRK2 act: i

(continued)
SMILES	GIRK2 act
CC(=O)Nc1ccc(OCC(O)Cn2cccn2)cc1 (stereo not given)	i
CCC(=O)Nc1ccc(C(=O)NCCNS(=O)(=O)c2ccc(Cl)c(Cl)c2)cc1	i
Cc1nn(C)cc1C(=O)Nc1nc2ccccc2[nH]1	i
Cn1cc(-c2cccs2)nc1CCNS(=O)(=O)c1ccc2c(c1)CCCC2	i
C=C(C)COc1ccc2c(=O)c(Oc3cccc(OC)c3)coc2c1	i
COC(=O)c1ccc(S(=O)(=O)NCC2(c3cccs3)CC2)cc1	i
Cn1c(=O)c2c(ncn2CC(=O)Nc2nnc(C3CC(=O)N(c4ccccc4)C3)o2)n(C)c1=O (stereo not given)	i
COc1cccc(NC(=O)CSc2nnc3n(CCC(=O)NC(C)C)c(=O)c4ccccc4n23)c1	i
COc1ccccc1NC(=O)Cn1cccc(S(=O)(=O)N2CCCC2)c1=O	i
CN1CCOc2ccc(NS(=O)(=O)c3cccc4ccccc34)cc2C1=O	i
Cc1cccc(Cn2c(=O)c3c(nc4n(-c5ccccc5O)c(C)cn34)n(C)c2=O)c1	i
COc1ccc(NC(=O)c2c3c(nn2C2CCS(=O)(=O)C2)CCC3)cc1OC (stereo not given)	i
CS(=O)(=O)N1CCC(C(=O)N2Cc3cncnc3C2)CC1	i
CCOc1ccc(-c2nc(CN3N=NC4C(=O)N(c5ccc(C)c(Cl)c5)C(=O)C43)c(C)o2)cc1 (stereo not given)	i
Cn1c(SCC(=O)Nc2ncccn2)nnc1-c1ccc2c(c1)OCO2	i
Cc1cc(-c2nnc(NC(=O)c3ccc4c(c3)OCO4)o2)nn1C	i
CCn1c(SCC(=O)Nc2cc(C)ccc2OC)nc2c(-c3ccccc3)c[nH]c2c1=O	i
CC(=O)c1ccc(N2CCN(C(=O)c3ccc(-n4cccn4)nn3)CC2)cc1	i
Brc1ccc(-c2nnc3sc(/C=C/c4ccccc4)nn23)cc1	i
Cc1cccc(CN2CCc3nc(C)n(CC(=O)Nc4cc(C)ccc4C)c(=O)c3C2)c1	i
CCn1c(=O)c(C(=O)Nc2ccc(OC)cc2)c(O)c2ccccc21	i
Cc1ccc(S(=O)(=O)c2nc(-c3ccccc3)oc2N2CCCC2)cc1	i
CCOc1ccc(-c2nc(COC(=O)c3nnn(-c4ccc(C)cc4)c3C)c(C)o2)cc1OC	i
COc1ccc(NC(=O)Nc2ccc(N)cc2)cc1	i
CSc1cccc(-c2nnc(NC(=O)Nc3ccccc3C(F)(F)F)o2)c1	i
COc1ccccc1N1CCN(CCNC(=O)C(=O)Nc2ccc(F)cc2)CC1	i
COc1ccc(CNC(=O)c2nnn(-c3ccccc3F)c2-c2cccnc2)cc1OC	i
CCc1ccc(S(=O)(=O)Nc2cccc(-c3csc4nc(C)c(C)c(=O)n34)c2)s1	i
O=C(NCCN1CCN(c2ccccc2)CC1)c1cccs1	i
Cc1onc(-c2ccccc2Cl)c1C(=O)N1CCN(C(=O)C2CC2c2cccs2)CC1 (stereo not given)	i

Sorted by number of heavy atoms (high to low): part of the list above.
SMILES	GIRK2 act
Cc1ccccc1Cn1c(=O)c2c(nc3n(CCCn4ccnc4)c(C)c(C)n23)n(C)c1=O	i
COc1ccc(-c2noc(C3CCN(CC(=O)Nc4ccc5c(c4)CCC5)CC3)n2)cc1	i
COc1cc(NC(=O)Cn2c3ccc(F)cc3c(=O)n2C(C)(C)C)cc(OC)c1OC	i
Cc1ccc2ncc(C(=O)N3CCCC3)c(S(=O)(=O)c3ccc(Br)cc3)c2c1	i

The results go on:
SMILES	GIRK2 act
CCNC(=O)C1CCCN(c2nc3ncn(CC(=O)Nc4cc(Cl)ccc4C)c(=O)c3s2)C1 (stereo not given)	i
CCOc1ccc(-c2cc(C(=O)N3CCC(NC(=O)c4cccc(OC)c4)CC3)[nH]n2)cc1	i
CC(C)CCN1C(=O)CCc2cc(NC(=O)NC(C)(C)C)ccc21	i
COc1cc(-c2nnc(NC(=O)c3ccccc3SC)o2)cc(OC)c1OC	i
O=C1CCCN1c1cccc(NS(=O)(=O)Cc2ccc(C(F)(F)F)cc2)c1	i
NC(=O)c1ccccc1OCC#CCNC(=O)/C=C/c1ccccc1Cl	i
Cc1cc(C)c(C(=O)Nc2ccc3c(c2)OCCO3)c(C)c1	i
Cc1ccc(N2CCC(C(=O)Nc3ccc(C)c(C)c3)CC2)nn1	i
CC(Oc1ccccc1)C(=O)N1CCC(CSCc2ccco2)CC1 (stereo not given)	i
Cc1ccc(N2CC(c3nc4ccccc4n3Cc3cccc(C)c3)CC2=O)cc1 (stereo not given)	i

Brought forward from above: two compounds; new compounds follow.
SMILES	GIRK2 act
CC(Oc1ccccc1)C(=O)N1CCC(CSCc2ccco2)CC1 (stereo not given)	i
Cc1ccc(N2CC(c3nc4ccccc4n3Cc3cccc(C)c3)CC2=O)cc1 (stereo not given)	i
CCCS(=O)(=O)N1CCc2ccc(NC(=O)NCCOc3ccccc3)cc2C1	i
COc1ccc(-c2cnoc2-c2ccc(O)cc2O)cc1	i
Cc1cn2c3c(=O)n(C)c(=O)n(C)c3nc2n1CCCNc1ccccc1F	i
CCOc1ccc(C2C(C(=O)OC)=C(C)Nc3ncnn32)cc1 (stereo not given)	i
CCOc1ccccc1CN1C(=O)C2(SC(NC(C)=O)=NN2C(C)=O)c2ccccc21 (stereo not given)	i
N#Cc1ccc(COCC2CCN(CC(=O)Nc3ccc(F)c(Cl)c3)CC2)cc1	i
Cc1ccccc1C(=O)N1CCC(c2cccs2)CC1	i
O=C(COc1ccc(F)cc1)NCC1CCN(C(=O)c2ccncc2)CC1	i
Cc1nc(-n2nc(-c3cccs3)cc2NC(=O)COc2ccc(F)cc2)[nH]c(=O)c1C	i
Cc1nc(-c2ccccc2Cl)sc1CNC(=O)COc1ccc2c(c1)OCO2	i
CCOC(=O)c1cn(-c2ccc(F)cc2)c(=O)c2ccccc12	i
